Screening data: PubChem, National Center for Advancing Translational Sciences (NCATS)
Cruzain inh noDet: blocks cruzain activity in detergent-free assay | purified cruzain, Z-FR-AMC fluorescence, no detergent | actives 2.3% (n = 200,000) | Potency, µM, inactives show max response, negative = inhibition, hits mostly inhibitors | P25779 | AID 1476; active = well fitted curve in the direction sought with a large enough effect; inconclusive = small, poorly fitted or top-dose-only effect, or another doubt; inactive = no such curve, though single readings can be large; an effect the other way counts as inactive or inconclusive;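 also: plate controls were enzyme without inhibitor for no effect and buffer without enzyme for full effect; nearly all actives have a fitted effect of over 40% in size; top concentration of the series not given in the record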
Target sequence (P25779 123-467 limits assumed): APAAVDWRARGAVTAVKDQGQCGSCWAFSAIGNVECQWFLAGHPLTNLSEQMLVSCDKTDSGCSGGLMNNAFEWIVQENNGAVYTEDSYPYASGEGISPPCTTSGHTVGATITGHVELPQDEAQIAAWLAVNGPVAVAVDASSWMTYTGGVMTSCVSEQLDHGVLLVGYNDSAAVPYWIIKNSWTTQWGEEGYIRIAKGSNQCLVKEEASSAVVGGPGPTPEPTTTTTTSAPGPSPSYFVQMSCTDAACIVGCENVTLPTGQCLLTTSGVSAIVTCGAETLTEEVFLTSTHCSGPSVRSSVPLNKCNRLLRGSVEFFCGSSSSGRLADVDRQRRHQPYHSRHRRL
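Detergent-free condition (0.00005% Triton X-100) in acetate buffer pH 5.5 with DTT. 1.5 nM enzyme and compound were pre-mixed 15 min, then 2 uM Z-FR-AMC substrate added; reaction progress from fluorescence change between first and third reads (60 s).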
NS1 inh: influenza NS1 inhibition | S. cerevisiae slowed by influenza A NS1, growth recovery by OD600 | Potency, µM (top dose mostly 46.1 µM), inactives show at the highest dose activity, positive = more growth | actives 0.4% (n = 270,000); also: actives are rising curves; nearly all actives have a fitted effect of over 50% in size
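In this qHTS, NS1 from influenza A is expressed in budding yeast, where it slows growth. Cells are switched from glucose to 2% galactose medium (pH 6.0, -URA), treated with compound, and growth recovery is read at OD600.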
Marburg entry inh: blocks Marburg virus binding to or entry into cells. Marburg virus pseudotyped entry inhibition, cell reporter; control for the full effect not named in the record; about a third of the inactives were read at about 46 µM. Potency, µM (titrated, usually from 37.8 µM), for inactives: top-dose activity change, negative = inhibition, hits mostly inhibitors. actives 1.8% (n = 300,000). AID 540276; active = well fitted inhibition curve with a large enough effect; inconclusive = small, poorly fitted or top-dose-only effect, or effect the other way; inactive = flat fitted curve, though single readings scatter; tested in HEK293 cells; about a fifth of its hits are not listed in these tables; also: % is scaled to controls: 0 for no effect and ±100 for the full control effect; luciferase read-out
Cruzain inh Det: cruzain (T. cruzi) inhibition with detergent; actives 0.43% (n = 200,000); Potency, µM, without a hit: max response, negative = inhibition, hits mostly inhibitors; purified cruzain, Z-FR-AMC fluorescence, 0.01% Triton; active = well fitted curve in the direction sought with a large enough effect; inconclusive = small, poorly fitted or top-dose-only effect, or another doubt; inactive = no such curve, though single readings can be large; an effect the other way counts as inactive or inconclusive;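 also: plate controls were neutral wells for no effect and buffer without enzyme for full effect; nearly all actives have a fitted effect of over 40% in size; top concentration of the series not given in the record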
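In this qHTS format, compounds are incubated with 1.5 nM cruzain for 15 min at room temperature before 2 uM Z-FR-AMC is added. Release of AMC is followed at 360/450 nm, and progress is taken as the 60 s fluorescence difference.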
StopGo reporter: lowers the luciferase signal of an FMDV 2A StopGo reporter; human cells with a luciferase reporter of 2A StopGo recoding; control for the full effect not named in the record; Potency, µM (highest dose often 57.9 µM), inactives show at the top dose signal change, negative = less light; actives 1.2% (n = 410,000); AID 1159524; active = well fitted falling curve with a large enough effect; inconclusive = small, poorly fitted or top-dose-only effect; inactive = no such curve, though single readings can be large or run the other way; tested in HEK293T cells; also: % is scaled to controls: 0 for no effect and ±100 for the full control effect; nearly all actives have a fitted effect of over 45% in size; luciferase light after 4 h
RE007 growth inh: less growth of the S. pombe RE007 Vpr strain | S. pombe RE007 Vpr strain, BacTiter-Glo ATP luminescence, 24 h; control for the full effect not named in the record | Potency, µM (series often up to 92.2 µM), for the others: at the highest dose activity change, negative = less growth | actives 0.21% (n = 360,000); active = well fitted falling curve with a large enough effect; inconclusive = small, poorly fitted or top-dose-only effect; inactive = no such curve, though single readings can be large or run the other way;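 also: % is scaled to controls: 0 for no effect and ±100 for the full control effect; nearly all actives have a fitted effect of over 50% in size; the assay follows cell death caused by Vpr and the record does not say whether a fall means rescue or toxicity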
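Fission yeast strain RE007, carrying one chromosomally integrated HIV-1 vpr copy, was seeded at OD 0.01 in PMG+AL medium with 23 nL pinned compound. After 24 h at 30 °C and 99% humidity, viability was read by BacTiter-Glo luminescence.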
LASV entry inh: Lassa virus entry inhibition; Lassa virus pseudotype entry inhibition, cell reporter; control for the full effect not named in the record; Potency, µM (titrated, usually from 37.9 µM), inactives show top-dose activity change, negative = inhibition, most hits filed as inhibitors; actives 1.2% (n = 300,000); AID 540256; active means well fitted inhibition curve with a large enough effect; inconclusive means small, poorly fitted or top-dose-only effect, or effect the other way; inactive means flat fitted curve, though single readings scatter; tested in HEK293 cells; also: % is scaled to controls: 0 for no effect and ±100 for the full control effect; nearly all actives have a fitted effect of over 50% in size; luciferase read-out
SARS PLP yeast: inhibitors of SARS-CoV papain-like protease in yeast | actives 0.19% (n = 330,000) | Potency, µM (series often up to 32.9 µM), for the others: top-dose activity, positive = growth rescue | S. cerevisiae expressing SARS-CoV PLpro, growth rescue; control for the full effect not named in the record; also: 0% is about no effect; nearly all actives have a fitted effect of over 55% in size; growth read by luminescence after 48 h
Starred values were filed as active, the others as inactive; ? = inconclusive; . = not tested or not shown; & = joins results of further samples; [ ] = another dose, or the depositor's remark. Unless noted, calls follow the shape of the dose curve; as a rule, active means well fitted rising curve with a large enough effect; inconclusive means small, poorly fitted or top-dose-only effect; inactive means no such curve, though single readings can be large or run the other way. Potency is read from the fitted curve at half-maximal effect.

SMILES	Cruzain inh noDet	NS1 inh	Marburg entry inh	Cruzain inh Det	StopGo reporter	RE007 growth inh	LASV entry inh	SARS PLP yeast
O=C1CCN(Cc2ccccc2)C(=O)N1	.	.	5%[46.1 µM]	.	-5%	1%	16%[46.1 µM]	.
CC(OC(=O)c1ccc(-n2cnnn2)cc1)C(=O)Nc1ccccc1F (stereo not drawn)	.	.	?	.	-20%	-15%	15%	-2%
O=C(Cc1csc(Nc2nc(=S)[nH]c3ccccc23)n1)NCCCN1CCN(c2ccccc2F)CC1	.	-1%	?	.	-27%	1%	.	8%
CC1CCN(S(=O)(=O)c2ccc(C(=O)N3CCCCC3C(=O)O)cc2)CC1 (stereo not drawn)	.	.	9%	.	-13%	3%	4%	11%
CCCn1nc2cc(C(=O)NCCCCc3ccccc3)ccc2c1OCC	5%	-52%	.	1.9%	-22%	0%	.	5%
COCCCN1CCN(C2Cc3ccccc3Sc3ccc(Cl)cc32)CC1 (stereo not drawn)	-5%	-36%	?	-7.2%	-9%	-19%	?	-20%
CCCn1c(SCC(=O)Nc2cccc(S(=O)(=O)N(C)C)c2)nc2ccccc2c1=O	.	9%	11µM*	.	11%	-5%	-16%[46.1 µM]	0%
COc1ccc(OC)c(NC(=O)CCN2CCN(C)CC2)c1	.	19%	.	.	-7%	5%	.	2%
Cc1cc(C(=O)Nc2ccccc2C(=O)O)ccc1NC(=O)COc1ccccc1Cl	.	-4%	-7%	.	-11%	-4%	?	-2%
O=C(Nc1c(-c2ccc(F)cc2)nc2ccccn12)c1ccc(F)cc1	.	4%	.	.	-28%	2%	.	0%
CN(C(=O)Cn1nc(Cl)ccc1=O)C1CCCN(Cc2ccccc2F)C1 (stereo not drawn)	.	2%	-5%[46.1 µM]	.	-18%	-13%	11%[46.1 µM]	-3%
Nc1c(C(=O)Nc2ccc(OC(F)(F)F)cc2)sc2nc(-c3ccncc3)ccc12	17%	.	-9%[46.1 µM]	-6.7%	?	.	?	.
O=C(Cc1ncc(C(F)(F)F)cc1Cl)NC1CC1	.	.	14%	.	-18%	2%	-15%	-1%
CC(/C=N/n1c(COc2ccccc2)n[nH]c1=S)=C\c1ccco1	.	2%	-5%[14.2 µM]	.	-17%	15%	?	1%
CN(C(=O)CSc1nc2ccc([N+](=O)[O-])cc2s1)C1CCS(=O)(=O)C1 (stereo not drawn)	.	-4%	.	.	-10%	-3%	.	-1%
CCOC(=O)C1CCN(C(=O)Cn2cc(C(=O)OC)c3ccccc32)CC1	.	-1%	20%[46.1 µM]	.	4%	20%	-11%	0%
COCc1ccc(C(=O)NC2CCCc3c2cnn3-c2cc(C)cc(C)c2)s1 (stereo not drawn)	.	-23%	.	.	-19%	8%	.	-17%
Cc1ccccc1COC(=O)CCC1=NS(=O)(=O)c2ccccc2N1	.	17%	37%[46.1 µM]	.	35%[activator]	-2%	-2%[46.1 µM]	.
Cc1oc2c(cc(NS(=O)(=O)c3ccc4c5c(cccc35)C(=O)N4)c3ccccc32)c1C(=O)OC(C)C	-1%	7%	-21%	-6.6%	3%	10%	?	0%
FC(F)(F)c1cnc(-c2cnc(-c3cccnc3)nc2)c(Cl)c1	.	.	-9%[46.1 µM]	.	47%[activator]	-16%	19%	1%
O=[N+]([O-])c1ccc(C(=S)N2CCN(Cc3ccccc3)CC2)cc1	4%	8%	?	-5.2%	?	-9%	-1%	3%
COc1cccc(/C=C/C(=O)Nc2ccccc2N2CCOCC2)c1	.	.	-10%	.	45%[activator]	-1%	?	-3%
CN(C)CCCNC(=O)/C=C/c1ccc(OCc2c(F)cccc2Cl)cc1	.	.	4µM*	.	-10%	2%	?	-8%
CCN1/C(=C/c2ccc3cc(C)ccc3[n+]2CC)Sc2ccccc21	-24%	-47%	1µM*	-17%	20µM*	?	5.2µM*	-100%
CCN(Cc1ccccc1)S(=O)(=O)c1c[nH]c(C(=O)OC)c1	.	-6%	.	.	-1%	-11%	.	1%
Cc1nc(SCC(=O)N2CCCCC2)c2c(C)c(C)sc2n1	.	-23%	?	.	-18%	5%	?	-2%
CCN(CC(=O)Nc1ccc2c(c1)OCCO2)C(=O)COc1ccc(C)cc1	.	-7%	-3%	.	10%	-6%	-14%	-3%
COc1ccc(-n2nc(C(=O)Nc3ccc4c(c3)OCO4)c3ccccc3c2=O)cc1	-4%	-17%	-10%	-0.9%	-17%	-25%	?	0%
O=C(NCc1ccco1)c1ccc(COCC(F)(F)C(F)F)cc1	5%	-12%	1%[46.1 µM]	4.7%	-5%	-17%	16%	4%
O=C(O)c1ccc(C(=O)Nc2cccc3ccccc23)c(C(=O)O)c1	-21%	4%&9%	.	-1.2%	-8%	-4%	.	-3%
On1c(-c2ccco2)nc2c1CCc1nonc1-2	-5%	7%	14%	-7.9%	7%	10%	6%	5%
COc1ccc(CC(=O)Nc2ccc(OC)nc2)cc1	.	.	1%[46.1 µM]	.	38%[activator]	-2%	14%[46.1 µM]	1%
Cc1ccccc1OCc1nc(C#N)c(N2CCCC2)o1	.	-9%	0%[46.1 µM]	.	-15%	-12%	-10%	-4%
COc1cccc(C(=O)NCCS(=O)(=O)N2CCOCC2)c1	.	.	1%	.	-3%	3%	9%	8%
O=c1cc(-c2ccc(O)cc2)oc2cc(O)c(C3OC(CO)C(O)C(O)C3O)c(O)c12 (stereo not drawn)	.	5%	.	.	-14%	12%	.	1%
O=C(COC(=O)c1cccc(Br)c1)NCC1CCCO1 (stereo not drawn)	.	.	0%[46.1 µM]	.	6%	2%	12%[46.1 µM]	-6%
COc1ccc(CNC(=O)Cc2c(C)c3cc4c(C)coc4cc3oc2=O)cc1OC	9%	.	-12%[46.1 µM]	-1.6%	-9%	.	11%[46.1 µM]	.
Cc1nn(CC(=O)Nc2cc(F)ccc2F)c(=O)c2cccn12	-4%	.	?	-0.8%	-13%	.	6%[46.1 µM]	.
CCN(CC)S(=O)(=O)c1ccc(Cl)c(NC(=O)CSc2nnc(-c3cccs3)o2)c1	-10%	-11%	?	-0.4%	-17%	-19%	18%	?
CCCNC(=O)Nc1cc(C)on1	2%	-1%	3%[46.1 µM]	3.4%	16%	8%	?	-1%
CCOc1ccccc1NC(=O)c1c(NCc2cccs2)sc2c1CCCCC2	-24%	.	.	-5.0%	38%[activator]	.	0%[46.1 µM]	.
O=C(Nn1c(C2CCC2)nc2ccccc2c1=O)c1cccs1	.	.	-4%[46.1 µM]	.	-9%	4%	8%[46.1 µM]	0%
c1ccc(-c2nnc(SCCC3OCCCO3)o2)cc1	4%	10%	-24%	2.7%	31%[activator]	-16%	?	6%
CC(=O)Nc1ccc(N/C(=N\S(=O)(=O)c2ccccc2)c2ccccc2)cc1	.	-5%	21%	.	-1%	-3%	-11%	3%
CC(CNC(=S)Nc1cc(F)cc(F)c1)CSc1ccc(Cl)cc1 (stereo not drawn)	.	-4%	?	.	-17%	0%	?	-4%
COc1cc(Cl)c(C)cc1NC(=O)COC(=O)c1cnc(C)cn1	-10%	-11%	19%	-6.5%	-24%	-19%	8%	11%
Cc1cc(-c2ccccc2)nc2cc(C(N)=O)nn12	-7%	-1%	12%[46.1 µM]	-5.8%	-9%	-12%	19%	-16%
O=C(C[n+]1cc(Br)cc(Br)c1)c1ccccc1	.	2%	-15%[46.1 µM]	.	7%	-16%	0%	5%
COC(=O)c1ccc(N2CCOCC2)c(F)c1	-8%	5%	10%	-1.1%	62%[activator]	0%	1%	3%
O=C(N/N=C/c1c(F)cccc1Cl)C1CC1	.	-1%	.	.	5%	-23%	.	1%
CCN(CC)C(c1ccc(F)cc1)c1nnnn1CC1CCCO1 (stereo not drawn)	-3%	1%	-9%	-2.3%	-2%	-2%	0%	7%
CS(=O)(=O)N(CC(=O)N1CCCC1)Cc1ccc(Cl)c(Cl)c1	.	13%	.	.	2%	1%	.	2%
O=C(Oc1cccc2cccnc12)c1ccc(N2C(=O)C3C4CCC(C4)C3C2=O)cc1 (stereo not drawn)	-1%	-2%	-16%	-6.9%	10%	?	1%	13%
CCc1nnc(NC(=O)CSc2ccc(-c3ccccc3OC)nn2)s1	.	.	-3%[46.1 µM]	.	9%	-18%	-3%	0%
Cc1nnc2sc(-c3ccco3)nn12	-12%	5%	5%	8.3%	22%	0%	12%	-2%
COc1cccc(OC)c1C(=O)Nc1ccc(N2CCN(S(C)(=O)=O)CC2)cc1	-4%	-6%	7%	6.3%	-1%	-15%	-3%	-2%
CC1=CC(C)(C)N(S(=O)(=O)c2ccc(F)cc2)c2ccccc21	-2%	19%	?	-3.9%	?	4%	-23%	-40%
Cc1cn2c(=O)cc(COC(=O)c3ccc(NC(=O)c4ccc(F)cc4)cc3)nc2s1	1%	.	.	1.2%	-7%	.	-2%[46.1 µM]	.
CCOc1ccccc1CNC(=O)C1CCCN(c2nn3c(=O)cc(C)nc3s2)C1 (stereo not drawn)	.	8%	17%[46.1 µM]	.	0%	-7%	10%[46.1 µM]	0%
CN(C)CC(=O)N1c2ccccc2CCc2ccc(NC(=O)c3ccc(N)cc3)cc21	3%	15%	?	-2.7%	-12%	-2%	16%	-4%

Further compounds.
SMILES	Cruzain inh noDet	NS1 inh	Marburg entry inh	Cruzain inh Det	StopGo reporter	RE007 growth inh	LASV entry inh	SARS PLP yeast
CC1(C)Cc2nc(-c3ccccc3)n3cnnc3c2CO1	-6%	8%	-10%	6.9%	-23%	12%	7%	3%
O=C(NC1CCCCC1)c1cc(N2C(=O)CCC2=O)ccc1Cl	.	-16%	0%[46.1 µM]	.	-3%	-5%	0%[46.1 µM]	1%
CC(CC(=O)Nc1ccc2c(c1)OCCO2)c1ccccc1 (stereo not drawn)	0%	8%	?	8.9%	48%[activator]	20%	?	-6%
COc1ccc(C(=O)NNc2ncnc3c2cnn3-c2ccc(C)c(Cl)c2)cc1	-2%	.	.	0.9%	-9%	.	-8%[46.1 µM]	.
CCOc1ccc(C(=O)Nc2c(C(=O)Nc3ccccc3OC)oc3ccccc23)cc1OCC	-15%	.	6%[46.1 µM]	7.6%	-29%	.	15%[46.1 µM]	.
CCCCOc1ccccc1P(=O)(O)CP(=O)(c1ccccc1)c1ccccc1	-12%	5%	-13%	4.1%	56%[activator]	-9%	-1%	-16%
